Vaccinia stage – blocks a specific stage of Vaccinia orthopoxvirus infection; Vaccinia-infected cells, mCherry/Venus stage reporter fluorescence; stronger effect = lower value; some inactives read as strong as hits; activity change (mCherry), % (no concentration beside the values); 0.01% of 89,000 active;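 active = mCherry past -33% and 40 or more points under the early reporter, replicates agreeing; inconclusive = past -33% without that gap or agreement; tested in A549 cells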;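 also: scaled between vehicle wells and reference inhibitor wells; 23 nL library stock went into each well; one replicate is shown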
Vaccinia stage Venus – second read-out of Vaccinia stage, no call of its own (marks repeat the call); activity change (Venus), %; measured here: Venus reporter, other viral stage;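 negative = less Venus signal; first of two replicates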
Active calls of the source: *; u = inconclusive; x = not tested or not shown. The list is partial; rates above refer to the full screens.

Molecule,Vaccinia stage,Vaccinia stage Venus
COc1ccc(S(=O)(=O)N2C[C@@H](O)COC[C@@H]3O[C@H](CC(=O)NCc4ccc(Cl)c(Cl)c4)CC[C@H]32)cc1,u,x
C[C@H](NC(=O)C[C@H]1C[C@H]2c3cc(NC(=O)NC4CCCCC4)ccc3O[C@H]2[C@@H](CO)O1)c1ccccc1,6,0
C[C@H](CO)N1C[C@H](C)[C@H](CN(C)C(=O)Nc2cccc3ccccc23)Oc2c(NS(C)(=O)=O)cccc2C1=O,46,27
Cc1ccccc1-c1ccc([C@H]2[C@@H](CO)N3CCCCN(C(=O)c4cccnc4)C[C@H]23)cc1,-3,-9
CCC(=O)N1C[C@H](O)COC[C@H]2O[C@H](CC(=O)N3CCCCC3)CC[C@@H]21,9,7
C[C@H]1CN([C@@H](C)CO)C(=O)Cc2cc(NC(=O)Nc3cccc4ccccc34)ccc2O[C@@H]1CN(C)C(=O)Nc1ccc(F)cc1,9,9
CN(C)C(=O)[C@H]1[C@H](CO)[C@H]2Cn3c(ccc(C4=CCCCC4)c3=O)[C@@H]1N2Cc1cccnc1,13,0
Cc1noc(C)c1NC(=O)Nc1ccc2c(c1)CC(=O)N([C@H](C)CO)C[C@H](C)[C@@H](CN(C)Cc1ccccc1)O2,5,5
C[C@H]1CCCCO[C@H](CN(C)C(=O)Nc2ccc(C(F)(F)F)cc2)[C@@H](C)CN([C@@H](C)CO)C(=O)c2cc(NS(=O)(=O)c3cccs3)ccc2O1,-21,-14
COCCNC(=O)C[C@H]1C[C@@H]2c3cc(NC(=O)CN(C)C)ccc3O[C@@H]2[C@H](CO)O1,12,14
O=C(C1CCCC1)N1CC(=O)N2[C@H](C1)[C@H](c1ccc(C#Cc3cccc(F)c3)cc1)[C@@H]2CO,u,x
CO[C@H]1CN(C)C(=O)c2ccc(NC(=O)c3nc4ccccc4s3)cc2OC[C@@H](C)N(Cc2cncnc2)C[C@@H]1C,u,x
CC(C)NC(=O)N(C)C[C@@H]1OCCCC[C@H](C)Oc2ccc(N(C)C)cc2C(=O)N([C@H](C)CO)C[C@@H]1C,13,12
C[C@H](CO)N1C[C@H](C)[C@H](CN(C)Cc2ccc(-c3ccccc3)cc2)Oc2ccc(NC(=O)CCCCCC(=O)Nc3ccccc3N)cc2C1=O,-16,-16
C[C@H](CO)N1C[C@H](C)[C@H](CN(C)S(=O)(=O)c2ccc(C#N)cc2)Oc2ncc(-c3cc4ccccc4o3)cc2C1=O,u,x
C[C@H]1CN([C@@H](C)CO)C(=O)c2cc(NS(=O)(=O)c3cn(C)cn3)ccc2O[C@H]1CN(C)S(=O)(=O)c1ccc(F)cc1,15,14
C[C@H](CO)N1C[C@H](C)[C@@H](CN(C)Cc2ccncc2)Oc2ccc(NC(=O)Nc3ccc(C(F)(F)F)cc3)cc2C1=O,u,x
C[C@@H]1CN([C@H](C)CO)C(=O)Cc2cc(NS(=O)(=O)c3cccs3)ccc2O[C@@H]1CN(C)CC1CCCCC1,-19,-7
C[C@H](CO)N1C[C@H](C)[C@H](CN(C)Cc2ccccc2C(=O)O)Oc2ncc(C#CC3CC3)cc2C1=O,16,13
COc1ccc(NC(=O)Nc2ccc3c(c2)[C@H]2C[C@H](CC(=O)NCc4ccccc4F)O[C@@H](CO)[C@H]2O3)cc1,-5,-6
O=C(CC1CC1)N[C@H]1CC[C@@H](CCNS(=O)(=O)c2ccc(Cl)cc2)O[C@@H]1CO,-7,0
O=C(Nc1ccc(F)cc1)N1CC(=O)N2[C@H](CO)[C@H](c3ccc(C4=CCCC4)cc3)[C@@H]2C1,-9,1
CN1CCN(C(=O)C[C@@H]2CC[C@@H]3[C@H](COC[C@H](O)CN3CC3CC3)O2)CC1,4,3
C[C@H]1CCCCO[C@H](CN(C)S(=O)(=O)c2ccc(F)cc2)[C@@H](C)CN([C@@H](C)CO)C(=O)c2cc(NC(=O)NC3CCCCC3)ccc2O1,-32,-22
CC(C)OC(=O)N(C)C[C@@H]1OCc2cn(nn2)CCCC(=O)N([C@H](C)CO)C[C@H]1C,10,13
C[C@@H]1CN([C@@H](C)CO)C(=O)Cc2cc(NC(=O)NC3CCCCC3)ccc2O[C@@H]1CN(C)Cc1ccc(Oc2ccccc2)cc1,-32,-19
C[C@H]1CN([C@@H](C)CO)C(=O)c2cc(NC(=O)CCC(F)(F)F)ccc2O[C@H]1CN(C)CC1CC1,13,11
C[C@H](CO)N1C[C@H](C)[C@H](CN(C)C(=O)Nc2ccccc2)Oc2cc(C#Cc3ccccc3)ccc2S1(=O)=O,-28,-22
O=C1CN(Cc2ccccc2)C[C@@H]2[C@@H](c3ccc(Br)cc3)[C@H](CO)N12,32,6
Cc1noc(C)c1NC(=O)Nc1ccc2c(c1)C(=O)N([C@H](C)CO)C[C@H](C)[C@H](CN(C)S(=O)(=O)c1cn(C)cn1)OCCCC[C@H](C)O2,7,4
Cc1ccc(S(=O)(=O)NCC[C@H]2CC[C@H](NC(=O)c3cnccn3)[C@@H](CO)O2)cc1,-16,-5
CCCN1C[C@@H](C)[C@@H](OC)CN(C)C(=O)c2ccc(NC(=O)c3ccccc3)cc2OC[C@H]1C,4,8
C[C@H](CO)N1C[C@H](C)[C@H](CN(C)S(=O)(=O)c2ccccc2)Oc2c(NS(=O)(=O)c3ccccc3)cccc2C1=O,12,0
O=C(N[C@H]1CC[C@H](CCNS(=O)(=O)Cc2ccccc2)O[C@@H]1CO)c1cnccn1,-5,-4
CCNC(=O)C[C@@H]1CC[C@H]2[C@@H](COC[C@@H](O)CN2C(=O)C2CCCC2)O1,8,7
C[C@@H]1CN([C@H](C)CO)C(=O)c2cccc(NC(=O)Nc3ccccc3)c2O[C@@H]1CN(C)C(=O)Nc1ccc2c(c1)OCO2,0,-1
CNC[C@H]1Oc2ccc(NS(=O)(=O)c3ccc(F)cc3)cc2CC(=O)N([C@H](C)CO)C[C@H]1C,8,3
COCCNC(=O)[C@@H]1[C@@H](CO)[C@@H]2Cn3c(ccc(-c4ccccc4F)c3=O)[C@@H]2N1C(=O)C1CC1,23,11
C[C@@H]1CN([C@@H](C)CO)C(=O)c2cc(C#Cc3ccccc3F)cnc2O[C@H]1CN(C)C(=O)C1CCC1,-30,-22
CN(C)C(=O)c1cc2c(c(-c3cccc(C4=CCCCC4)c3)n1)[C@H](CCO)N(S(C)(=O)=O)C2,2,-3
COCC#Cc1cnc2c(c1)C(=O)N([C@H](C)CO)C[C@H](C)[C@H](CN(C)S(=O)(=O)c1ccccc1)O2,2,-6
C[C@H]1CN([C@@H](C)CO)C(=O)Cc2cc(NS(=O)(=O)c3ccccc3)ccc2O[C@@H]1CN(C)Cc1ccc(C(F)(F)F)cc1,u,x
C[C@H]1CN([C@@H](C)CO)C(=O)Cc2cc(NS(=O)(=O)c3ccc(F)cc3)ccc2O[C@H]1CN(C)S(=O)(=O)c1ccccc1,8,20
N#C[C@H]1[C@H](c2ccccc2)[C@H](CO)N1C(=O)Nc1cccc(F)c1,3,2
O=C(CN1CCOCC1)NCC[C@@H]1CC[C@H](NC(=O)Nc2ccc(Cl)cc2)[C@H](CO)O1,-8,2
CN(C)Cc1cn(CC[C@H]2CC[C@H](NS(=O)(=O)c3ccccc3)[C@H](CO)O2)nn1,-6,-4
COc1ccc(NC(=O)N(C)C[C@@H]2OCCCC[C@H](C)Oc3ccc(NS(=O)(=O)c4ccc(F)cc4)cc3C(=O)N([C@H](C)CO)C[C@@H]2C)cc1,-2,-10
C[C@@H]1CN([C@H](C)CO)C(=O)c2cccc(NC(=O)C3CCOCC3)c2O[C@H]1CN(C)Cc1ccc2c(c1)OCO2,-1,-5
O=C(C[C@@H]1CC[C@H]2[C@@H](COC[C@H](O)CN2CCc2ccccc2)O1)NCc1ccc(Oc2ccccc2)cc1,u,x
O=C([C@H]1N[C@H]2c3ccc(-c4ccc(F)cc4)c(=O)n3C[C@H]2[C@@H]1CO)N1CCc2ccccc2C1,-1,7

An excerpt of these results, with values under each structure.
Results follow in this order: Vaccinia stage, Vaccinia stage Venus
N#C[C@H]1[C@H](c2ccccc2)[C@H](CO)N1C(=O)Nc1cccc(F)c1
 : 3, 2
O=C(CN1CCOCC1)NCC[C@@H]1CC[C@H](NC(=O)Nc2ccc(Cl)cc2)[C@H](CO)O1
 : -8, 2

Continued.
Molecule,Vaccinia stage,Vaccinia stage Venus
Cc1ccccc1-c1ccc([C@@H]2[C@H]3CN(S(C)(=O)=O)CC(=O)N3[C@H]2CO)cc1,-6,-8
CC(=O)NC[C@@H]1[C@@H](c2ccc(C3=CCCC3)cc2)[C@@H](CO)N1C(=O)CN(C)C,0,-5
CCC(=O)Nc1ccc2c(c1)C(=O)N(C)[C@@H]1CC[C@@H](CC(=O)NCCCN(C)C)O[C@@H]1CO2,-3,2
C=CC[C@]1(C(=O)OC)N=C(c2ccc(OCCCO)cc2)O[C@H]1c1ccccc1,-12,-8
O=C(NC1CCCC1)N1CC(=O)N2[C@H](CO)[C@H](c3ccc(-c4cccnc4)cc3)[C@@H]2C1,28,7
C[C@@H]1CN([C@H](C)CO)C(=O)Cc2cc(NC(=O)CCN3CCOCC3)ccc2O[C@H]1CN(C)S(C)(=O)=O,13,9
COc1ccccc1CNC(=O)C[C@@H]1CC[C@H]2[C@@H](COC[C@@H](O)CN2C(=O)Nc2ccc(Cl)cc2)O1,-3,-9
Cc1noc(C)c1NC(=O)N(C)C[C@H]1Oc2ccc(NC(=O)Nc3ccc(F)cc3)cc2CC(=O)N([C@@H](C)CO)C[C@@H]1C,27,13
C[C@H]1CN([C@@H](C)CO)S(=O)(=O)c2ccc(-c3ccncc3)cc2O[C@@H]1CN(C)C(=O)c1cccc(F)c1,15,2
CO[C@@H]1CN(C)C(=O)c2cc(NS(=O)(=O)c3ccc(C)cc3)ccc2OC[C@H](C)N(C)C[C@@H]1C,1,5
COCC(=O)N1CC2(CCN(Cc3ccccc3Cl)CC2)c2c([nH]c3cc(OC)ccc23)[C@H]1CO,u,x
O=C(Nc1ccc(F)cc1)N1CC(=O)N2[C@@H](CO)[C@H](c3ccc(C#Cc4ccc(F)cc4)cc3)[C@@H]2C1,u,x
COc1ccccc1-c1ccc([C@@H]2[C@@H](CO)N(C(=O)C3CCC3)[C@H]2C#N)cc1,-33,-17
CCC(=O)N(C)C[C@@H]1Oc2cc(C#CC(C)C)ccc2S(=O)(=O)N([C@@H](C)CO)C[C@@H]1C,9,4
C[C@H](CO)N1C[C@H](C)[C@@H](CN(C)C)Oc2ncc(C#CC3CC3)cc2C1=O,9,2
COCC(=O)N(C)C[C@H]1Oc2cc(-c3ccc(OC)cc3)ccc2S(=O)(=O)N([C@H](C)CO)C[C@@H]1C,-10,-10
C[C@H]1CCCCO[C@H](CN(C)Cc2ccncc2)[C@@H](C)CN([C@@H](C)CO)C(=O)c2cc(NC(=O)Cc3ccccc3)ccc2O1,-16,-4
C[C@@H]1CN([C@H](C)CO)C(=O)c2cc(NC(=O)C3CCCCC3)ccc2O[C@@H]1CN(C)Cc1ccncc1,7,10
Cc1ccccc1S(=O)(=O)N(C)C[C@H]1OCc2cnnn2CCCC(=O)N([C@H](C)CO)C[C@H]1C,15,24
CCNC(=O)Nc1ccc2c(c1)C(=O)N(C)[C@H]1CC[C@H](CC(=O)NCCOC)O[C@H]1CO2,2,5

Compound profiles, from the list above:
COc1ccccc1-c1ccc([C@@H]2[C@@H](CO)N(C(=O)C3CCC3)[C@H]2C#N)cc1 across the screens: Vaccinia stage: -33; Vaccinia stage Venus: -17
CCC(=O)N(C)C[C@@H]1Oc2cc(C#CC(C)C)ccc2S(=O)(=O)N([C@@H](C)CO)C[C@@H]1C across the screens: Vaccinia stage: 9; Vaccinia stage Venus: 4
C[C@@H]1CN([C@H](C)CO)C(=O)c2cc(NC(=O)C3CCCCC3)ccc2O[C@@H]1CN(C)Cc1ccncc1 across the screens: Vaccinia stage: 7; Vaccinia stage Venus: 10

New compounds follow
Molecule,Vaccinia stage,Vaccinia stage Venus
COc1ccc(-c2ccc([C@@H]3[C@H](CO)N4C(=O)CNC[C@@H]34)cc2)cc1,19,12
CN(C)C(=O)c1ccc(-c2ccc([C@@H]3[C@@H](C#N)N(C(=O)C4CC4)[C@H]3CO)cc2)cc1,-34,-18
CCC(=O)Nc1ccc2c(c1)OC[C@@H](C)N(Cc1ccccc1)C[C@H](C)[C@@H](OC)CN(C)C2=O,-22,-18
COc1ccc(NC(=O)Nc2cccc3c2O[C@H](CN(C)Cc2ccc(-c4ccccc4)cc2)[C@H](C)CN([C@H](C)CO)C3=O)cc1,-7,-1
C[C@@H]1CN([C@@H](C)CO)C(=O)c2cc(NC(=O)c3ccccc3)ccc2O[C@@H](C)CCCCO[C@H]1CN(C)S(=O)(=O)c1cn(C)cn1,9,8
C[C@@H]1CN([C@H](C)CO)C(=O)c2cccc(NS(=O)(=O)c3cn(C)cn3)c2O[C@@H]1CN(C)CC1CCCCC1,14,7
C[C@@H]1CN([C@@H](C)CO)S(=O)(=O)c2ccc(C3=CCCCC3)cc2O[C@H]1CN(C)C(=O)C1CC1,-16,-9

Screening data (PubChem)
